Bioassay records as filed in PubChem.
UCH37 inh: inhibitors of human UCH37 deubiquitinase, primary screen, biochemical, Ub-AMC cleavage, fluorescence | Ubiquitin carboxyl-terminal hydrolase isozyme L5 (Homo sapiens), Q9Y5K5 | purified proteasome/UCH37 | inhibition, % (test concentration not listed) | 0.33% of 330,000 active | AID 588478, 2011;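 active = mean of two replicates above 20%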;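 also: 0% = compound-free wells with enzyme and 100% = wells lacking proteasome; stock transfer was 100 nL into about 20 µL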
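Material: Human UCH37 enzyme supplied as purified proteasome complex | Schedule: 30 min preincubation with enzyme, 25 min cleavage at room temperature | Detection: AMC fluorescence 355/460 nm | Measure: % inhibition of Ub-AMC cleavage fluorescence | Controls: Wells without proteasome as full block, compound-free enzyme plus substrate as uninhibited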
Beta2AR agonist: beta2AR agonists driving receptor internalization, primary screen, cell-based, FAP fluorogen, flow cytometry; Beta-2 adrenergic receptor (Homo sapiens), P07550; Am2.2-beta2AR cells; reference of the scale not given here; response, % (test concentration not listed); 0.43% of 340,000 active; AID 504454, 2011;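 active = response above a set limit, near 3 SD of response in nonfluorescent compounds, cut at about 42% in these data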;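 also: stock transfer was 100 nL into about 11 µL; a reference agonist was the positive control; negative values mostly stem from fluorescent compounds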
LANA-H2B inh: blockers of LANA interaction with H2A/H2B – biochemical, FP readout, HTS, primary screen; Protein LANA1 (Human herpesvirus 8 type P (isolate GK18)), Q9QR71; cell-free LANA-H2A/H2B peptide, fluorescence polarization; inhibition, % (test concentration not listed); 0.6% of 320,000 active; in the data active = inhibition mostly above about 10%, no sharp cut-off; inactive = mostly below about 6.7%;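 also: stock transfer was 7.5 nL into about 10 µL; 0% = median of vehicle wells and 100% = median of positive control wells; one replicate is shown; the record names a cut of 25% in any replicate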
A1 inh: caspase 3/7 activation in MEF A1-2A-BIM cells, primary screen, A1 inhibitor project, cell-based, luminescence, HTS. AID 2462, 2010. caspase activation, % (test concentration not listed). 0.066% of 330,000 active. Caspase-Glo 3/7 luminescence, 3 h; percent of clofoctol response, vehicle zero;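 active = over half of replicate activation scores above 10%, or exactly half above 10 with the replicate mean above 10; inconclusive = replicate mean below 10 yet half the replicates above 10; inactive = over half of replicates below 10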;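 also: wells of about 30 µL received 50 nL stock; many hits fall short of the cut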
Ecoli growth: E. coli growth inhibition, primary screen, OD600. OD600 absorbance (no concentration beside the values). Escherichia coli growth, 23 h; stronger effect = lower value. 0.21% of 330,000 active;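 active = OD600 absorbance below the run mean of sample wells minus 3.6 SD, in any replicate, cut at about 0.56 in these data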;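 also: stock transfer was 300 nL into about 60 µL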
Vif A3G: inhibitors of Vif binding to APOBEC3G peptide, primary screen, biochemical, TR-FRET, GST-Vif 1-94, biotin-A3G peptide, dose response retest (AID 1117319). Virion infectivity factor (Human immunodeficiency virus type 1 group M subtype B (isolate …. TR-FRET GST-Vif / biotin-A3G peptide binding; higher % means a stronger effect; test concentration not given here; strong numbers were not always called active. inhibition, %; hits with a dose series show IC50 in µM. 0.57% of 260,000 active;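 active = above the screen mean plus three standard deviations and confirmed in dose response; inconclusive = results disagree or hit not tested in dose response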;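 also: Vif residues 1-94 fused to GST binding biotinylated APOBEC3G peptide 110-148; 0% = full assay without inhibitor and 100% = GST in place of GST-Vif; retest series ran down from 100 µM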
HNF4A DNA FP: change in binding of human HNF4A to DNA, primary screen, biochemical, fluorescence polarization, FITC-DNA. activity change, % at 10 µM. 1 h. 0.3% of 360,000 active. AID 1224865, 2016. Hepatocyte nuclear factor 4-alpha (Homo sapiens), P41235; in the data active = activity change above about 30%, passing the limit was not always enough;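 also: controls were the assay level and a saturating level of protein; the project sought stronger binding though the title names inhibitors; some compounds called inactive have numbers as strong as hits; positive values seem to mean higher polarization but the record does not say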
An asterisk follows results filed as active; ? = inconclusive; · = no result given.

SMILES	UCH37 inh	Beta2AR agonist	LANA-H2B inh	A1 inh	Ecoli growth	Vif A3G	HNF4A DNA FP
Cc1ccc2c(c1)NCC(C(=O)NC1CCCCC1)O2 (stereo not given)	2.3	2	1.7	0.7	0.68	?	4.7
CNC(=O)COc1ncnc2sccc12	·	1	·	·	0.7	-8%	0.8
CCCCCCNc1nc(NCc2ccco2)nc(OCC)n1	1.1	-18	-3.8	0.6	0.68	3%	-3.6
O=C(NC1CCCCC1)c1sc(=S)n2c1[nH]c(=O)c1ccccc12	4.4	8	-5.0	1.3	0.72	69%	-3.4
CCCn1c(=O)c(C(=O)Nc2ccccc2C)c(O)c2ccccc21	-186	-2	-5.0	0.1	0.67	-11%	1.9
CC1CC(C)CN(c2oc(-c3ccccc3Cl)nc2C#N)C1 (stereo not given)	-62	3	-2.8	0.3	0.65	26%	3.5
COc1ccc(OCCNC(=O)c2ccccc2OCC(=O)N2CCCCC2)cc1	3.5	-3	-2.6	-0.4	0.71	25%	2.2
Cc1ccc(-c2ccc(OC(=O)c3ccc(=O)[nH]c3)c(C)c2)cc1	1.8	27	-4.5	-0.2	0.7	1%	-1.6
CN(Cc1ccccc1N1CCCC1)C(=O)c1cc2ccccc2o1	1.0	1	-3.0	-0.5	0.72	0%	10
O=C(COc1cccc2c1CCN(Cc1ccccc1)C2=O)N1CCCCC1	1.0	-1	-6.3	?	0.72	0%	-4.5
CCc1ccc(C(=O)COC(=O)C2CCN(c3ccc(C(F)(F)F)cn3)CC2)cc1	-0.8	6	-1.5	-0.2	0.63	0%	2.7

Part of the list above, with bars between the fields.
molecule | UCH37 inh | Beta2AR agonist | LANA-H2B inh | A1 inh | Ecoli growth | Vif A3G | HNF4A DNA FP
Cc1ccc2c(c1)NCC(C(=O)NC1CCCCC1)O2 (stereo not given) | 2.3 | 2 | 1.7 | 0.7 | 0.68 | ? | 4.7
CNC(=O)COc1ncnc2sccc12 | · | 1 | · | · | 0.7 | -8% | 0.8
CCCCCCNc1nc(NCc2ccco2)nc(OCC)n1 | 1.1 | -18 | -3.8 | 0.6 | 0.68 | 3% | -3.6
O=C(NC1CCCCC1)c1sc(=S)n2c1[nH]c(=O)c1ccccc12 | 4.4 | 8 | -5.0 | 1.3 | 0.72 | 69% | -3.4
CCCn1c(=O)c(C(=O)Nc2ccccc2C)c(O)c2ccccc21 | -186 | -2 | -5.0 | 0.1 | 0.67 | -11% | 1.9
CC1CC(C)CN(c2oc(-c3ccccc3Cl)nc2C#N)C1 (stereo not given) | -62 | 3 | -2.8 | 0.3 | 0.65 | 26% | 3.5
COc1ccc(OCCNC(=O)c2ccccc2OCC(=O)N2CCCCC2)cc1 | 3.5 | -3 | -2.6 | -0.4 | 0.71 | 25% | 2.2
Cc1ccc(-c2ccc(OC(=O)c3ccc(=O)[nH]c3)c(C)c2)cc1 | 1.8 | 27 | -4.5 | -0.2 | 0.7 | 1% | -1.6
CN(Cc1ccccc1N1CCCC1)C(=O)c1cc2ccccc2o1 | 1.0 | 1 | -3.0 | -0.5 | 0.72 | 0% | 10
O=C(COc1cccc2c1CCN(Cc1ccccc1)C2=O)N1CCCCC1 | 1.0 | -1 | -6.3 | ? | 0.72 | 0% | -4.5
CCc1ccc(C(=O)COC(=O)C2CCN(c3ccc(C(F)(F)F)cn3)CC2)cc1 | -0.8 | 6 | -1.5 | -0.2 | 0.63 | 0% | 2.7
